Screens from PubChem.
HNF4A DNA FP: change in binding of human HNF4A to DNA, primary screen, biochemical, fluorescence polarization, FITC-DNA; Hepatocyte nuclear factor 4-alpha (Homo sapiens), P41235; 1 h; activity change, % at 10 µM; actives 0.3% (n = 360,000); AID 1224865, 2016; in the data active means activity change above about 30%, passing the limit was not always enough;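 further: controls were the assay level and a saturating level of protein; the project sought stronger binding though the title names inhibitors; some compounds called inactive have numbers as strong as hits; positive values seem to mean higher polarization but the record does not say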
Ecoli growth: E. coli growth inhibition, primary screen, OD600 | Escherichia coli growth, 23 h; hits give low values | OD600 absorbance (no concentration beside the values) | actives 0.21% (n = 330,000) | AID 1053175, 2014;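 active means OD600 absorbance below the run mean of sample wells minus 3.6 SD, in any replicate, cut at about 0.56 in these data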;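 further: stock transfer was 300 nL into about 60 µL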
Vif TR-FRET: inhibitors of Vif binding to APOBEC3G peptide, primary screen, biochemical, TR-FRET, GST-Vif 1-94, biotin-A3G peptide, dose response retest (AID 1117319); actives 0.57% (n = 260,000); TR-FRET GST-Vif / biotin-A3G peptide binding; higher % means a stronger effect; test concentration not given here; strong numbers were not always called active; Virion infectivity factor (Human immunodeficiency virus type 1 group M subtype B (isolate …; inhibition, %, or IC50 in µM where a hit was titrated;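 active means above the screen mean plus three standard deviations and confirmed in dose response; inconclusive means results disagree or hit not tested in dose response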;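 further: Vif residues 1-94 fused to GST binding biotinylated APOBEC3G peptide 110-148; 0% = full assay without inhibitor and 100% = GST in place of GST-Vif; retest series ran down from 100 µM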
AF4-AF9 inh: inhibitors of AF4 peptide binding to AF9, primary screen, biochemical, AlphaScreen, biotin-AF4 peptide, FLAG-AF9, single point | Protein AF-9 (Homo sapiens), P42568 | inhibition, % at 10 µM | actives 0.47% (n = 350,000);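 active means every replicate reaching a set inhibition limit, whatever the replicate mean, cut at about 25% in these data; inconclusive means mean inhibition reaches that limit but some replicates miss it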;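 further: 0% = plate neutral control median and 100% = total signal loss; the record names both 10 and 1 µM as test concentration; the first replicate is given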
Target sequence (P42568 whole entry, looked up): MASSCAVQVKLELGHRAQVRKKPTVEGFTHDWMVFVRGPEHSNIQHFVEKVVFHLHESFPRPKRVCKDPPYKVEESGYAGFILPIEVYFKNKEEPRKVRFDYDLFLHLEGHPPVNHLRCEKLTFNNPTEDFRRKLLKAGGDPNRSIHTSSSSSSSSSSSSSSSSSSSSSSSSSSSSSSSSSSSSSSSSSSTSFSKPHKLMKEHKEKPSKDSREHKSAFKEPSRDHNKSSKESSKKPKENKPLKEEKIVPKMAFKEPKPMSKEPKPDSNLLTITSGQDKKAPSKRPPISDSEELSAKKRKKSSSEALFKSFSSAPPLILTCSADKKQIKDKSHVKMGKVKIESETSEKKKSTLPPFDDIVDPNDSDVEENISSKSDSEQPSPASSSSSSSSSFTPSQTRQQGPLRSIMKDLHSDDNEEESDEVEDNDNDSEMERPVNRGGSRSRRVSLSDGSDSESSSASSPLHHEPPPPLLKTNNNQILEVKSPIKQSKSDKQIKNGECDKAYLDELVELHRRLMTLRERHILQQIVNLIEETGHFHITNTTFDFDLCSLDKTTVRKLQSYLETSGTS
UCH37 DUB inh: inhibitors of human UCH37 deubiquitinase, primary screen, biochemical, Ub-AMC cleavage, fluorescence | purified proteasome/UCH37 | inhibition, % (concentration not given with the values) | actives 0.33% (n = 330,000) | AID 588478, 2011;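 active means mean of two replicates above 20%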;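 further: 0% = compound-free wells with enzyme and 100% = wells lacking proteasome; stock transfer was 100 nL into about 20 µL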
Target sequence (Q9Y5K5 whole entry, looked up): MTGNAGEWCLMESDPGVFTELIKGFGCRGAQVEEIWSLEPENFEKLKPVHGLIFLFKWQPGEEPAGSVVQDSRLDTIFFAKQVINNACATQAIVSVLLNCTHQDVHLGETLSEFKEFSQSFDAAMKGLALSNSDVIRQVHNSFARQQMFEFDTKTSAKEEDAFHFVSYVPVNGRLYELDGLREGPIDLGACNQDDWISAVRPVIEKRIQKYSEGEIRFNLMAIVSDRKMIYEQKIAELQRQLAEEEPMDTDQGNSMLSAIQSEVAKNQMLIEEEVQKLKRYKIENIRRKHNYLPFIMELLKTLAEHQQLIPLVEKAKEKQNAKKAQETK
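Material: human UCH37 enzyme supplied as purified proteasome complex. Measure: % inhibition of Ub-AMC cleavage fluorescence. Medium: pH 7.4 Tris-HCl (50 mM) with ovalbumin, ATP-MgCl2, DTT. Times: 30 min preincubation with enzyme, 25 min cleavage at room temperature. Detection: AMC fluorescence intensity at 355/460 nm.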
RanGTP-Impb inh: inhibitors of RanGTP-importin-beta interaction, primary screen, biochemical, FRET, CFP-Ran, YFP-importin-beta, homogeneous; cell-free CFP-Ran/YFP-importin-beta FRET ratio; Ran GTPase (GTP-bound) - importin-beta complex; actives 1.1% (n = 300,000); AID 2216, 2009; inhibition, % (test concentration not listed);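 active means most replicates above 15%; inconclusive means exactly half above 15%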;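 further: 0% = DMSO wells and 100% = Ran loaded with GDP instead of GTP; wells of about 40 µL received 100 nL stock; the first replicate is given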
FGF22 binding: binders of human FGF22 protein, primary screen, FGF22 synaptogenesis inhibitor project, biophysical, thermal shift, single point. Fibroblast growth factor 22 (Homo sapiens), Q9HCT0. recombinant FGF22 thermal shift, SYPRO orange fluorescence; percent of sucrose octasulfate shift, DMSO zero. calls only at 9.99 µM. actives 1.5% (n = 340,000). AID 651658, 2012;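 active means melting point raised past a set limit in the mean and every replicate; inconclusive means no clear call; three in four hits are not shown here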
Target sequence (Q9HCT0 whole entry, looked up): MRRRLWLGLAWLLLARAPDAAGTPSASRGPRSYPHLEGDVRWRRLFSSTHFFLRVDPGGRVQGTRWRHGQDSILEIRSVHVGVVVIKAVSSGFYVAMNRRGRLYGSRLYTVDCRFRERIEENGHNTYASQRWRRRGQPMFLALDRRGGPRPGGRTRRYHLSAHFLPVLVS
Numbers without * were called inactive; i = inactive; u = inconclusive; x = no result given; & = joins results of further samples. Not all compounds are listed. The share of hits here may be higher or lower than overall.

structure	HNF4A DNA FP	Ecoli growth	Vif TR-FRET	AF4-AF9 inh	UCH37 DUB inh	RanGTP-Impb inh	FGF22 binding
CC(Oc1ccc(Br)cc1)C(=O)NCCCN1CCCC1=O (centres undefined)	3.7	0.702	x	-1.6	-2.8	x	i
CC(C)CCNc1ncnc2c1nnn2Cc1ccccc1	-2.0	x	1.3%	-4.1	x	1.1	i
CN(C)S(=O)(=O)c1ccc2c(c1)nc(CCC(=O)NCC1CCCCC1)n2C	1.4	0.676	0.4%	x	1.2	2.9	x
O=C(NCCc1c[nH]c2ccccc12)/C(=C/c1cccnc1)NC(=O)c1cccs1	-1.4	0.661	-2.5%	-0.1	2.5	x	i
CC(C)CN(C(=O)COC(=O)c1cccn1C)c1c(N)n(Cc2ccccc2)c(=O)[nH]c1=O	2.6	0.713	8.9%	-2.7	-4.1	u	i
Cn1c(N)c(C(=O)COC(=O)C23CC4CC(CC(C4)C2)C3)c(=O)n(C)c1=O	-2.2	0.708	1.6%	x	0.6	-0.8	x
CCCc1[nH]nc2c1C(c1ccncc1)C(C#N)=C(N)O2 (centres undefined)	-0.1	0.705	25.2%	x	2.2	x	x
COc1ccc(NC(=O)[C@@H]2CC=C[C@@H]3CCN(Cc4ccc(Cl)c(Cl)c4)C(=O)[C@@H]32)cc1	-2.1	x	x	-1.9	1.2	-1.9	i
CCCn1c(=N)n(CC(O)c2ccc(C)cc2)c2ccccc21 (centres undefined)	-3.7	0.632	-11.4%	0.0	5.4	1.0	i
Cc1nn(-c2ccccc2)c(Cl)c1C(=O)Nc1ccccc1	-3.8	0.727	-1.6%	x	4.1	3.5	x

A different layout for two compounds above:
CC(Oc1ccc(Br)cc1)C(=O)NCCCN1CCCC1=O (centres undefined)
  HNF4A DNA FP: 3.7 | Ecoli growth: 0.702 | Vif TR-FRET: x | AF4-AF9 inh: -1.6 | UCH37 DUB inh: -2.8 | RanGTP-Impb inh: x | FGF22 binding: i

CC(C)CCNc1ncnc2c1nnn2Cc1ccccc1
  HNF4A DNA FP: -2.0 | Ecoli growth: x | Vif TR-FRET: 1.3% | AF4-AF9 inh: -4.1 | UCH37 DUB inh: x | RanGTP-Impb inh: 1.1 | FGF22 binding: i

New compounds follow:
structure	HNF4A DNA FP	Ecoli growth	Vif TR-FRET	AF4-AF9 inh	UCH37 DUB inh	RanGTP-Impb inh	FGF22 binding
CCCSc1nnc2c(n1)OC(c1cccn1C)N(C(C)=O)c1ccccc1-2 (centres undefined)	-0.4	0.637	13.7%	x	1.4	-1.4	x
Cc1ccc(SCCCCN2CCNCC2)cc1	0.8	x	23.8%	9.1	x	1.3	i
CCCc1cc(=O)oc2cc(OCC(=O)Nc3ccccn3)ccc12	0.1	0.659	x	-1.0	-35.1	2.7	i
O=[N+]([O-])c1cccc(-c2c(-c3ccccc3)ncc3ccc(F)cc23)c1	2.9	0.677	x	1.8	0.7	x	i
COc1ccc(-c2cc(=O)oc3cc(OCC(=O)NCc4ccccn4)ccc23)cc1	4.6	0.751	x	1.0	-6.6	-5.5	i
O=C1C(Cl)=C(NC(=O)c2ccccc2)C(=O)C(Cl)=C1NC(=O)c1ccccc1	1.0	0.651	20.2%	-9.5	6.6	-4.9	i
COc1cc2c(cc1NC(=O)c1cccc(Br)c1)CCCC2	2.2	0.718	-3.0%	x	6.6	1.8	x
CCCNC(=O)COc1coc(CN2CCN(c3ccccc3OC)CC2)cc1=O	3.2	0.705	x	-2.3	1.5	1.7	i
O=C(N[C@H]1CC[C@H](CCNS(=O)(=O)c2ccc(Cl)cc2)O[C@@H]1CO)c1cccc(F)c1	5.0	x	x	-1.7&1.7	x	x	i
C[C@@H]1CN([C@H](C)CO)C(=O)c2c(c3ccccc3n2C)-c2ccccc2CO[C@H]1CN(C)C(=O)Cc1ccccc1	0.1	x	0.3%	4.1&4.5	x	x	i
CC(NC(=S)Nc1ccc(F)cc1)c1ccccc1 (centres undefined)	1.6	0.595	x	-0.2	-0.6	u	x
O=S(=O)(c1cccc(-c2nnc(SCc3ccc(Cl)cc3)o2)c1)N1CCCCC1	2.0	0.748	4.0%	x	0.5	-2.7	x
CC(=O)c1cccc(NC(=O)CN(c2cccc(F)c2)S(C)(=O)=O)c1	1.3	0.717	4.4%	x	-0.1	-0.3	x
CCCc1nnc2n1N=C(c1ccc([N+](=O)[O-])cc1)CS2	6.6	0.682	u	-1.8	6.3	-0.3	i
Cc1cc(C)n(-c2c(C)[nH]c3ccccc23)n1	3.3	0.716	0.5%	2.9	3.2	1.3	x
Cc1cccc(C(=O)NCc2nnc(SC(C)C(=O)Nc3nnc(C)s3)n2C)c1 (centres undefined)	-0.2	0.664	2.0%	-15.8	1.5	2.0	i
C/C(=N\NC(N)=O)c1ccc(Cl)cc1	4.6	x	u	x	x	1.8	x
Cc1ccc(C)c(OCC(=O)N(C)CC(=O)Nc2ccc(Cl)c(C(F)(F)F)c2)c1	-0.3	0.667	-10.9%	1.3	4.3	x	i
CCN=C1SC(CC(=O)NCCc2ccc(OC)c(OC)c2)C(=O)N1CC (centres undefined)	1.2	0.703	-6.4%	x	-2.1	-1.6	x
Cc1ccc(NS(=O)(=O)c2c(C(=O)N3CCOCC3)c(C)n(C)c2C)cc1C	1.3	0.706	-7.0%	2.0	2.6	2.9	i
O=c1c2cc(Br)ccc2nc(-c2ccc(Cl)cc2)n1O	2.7	0.566	-2.7%	-10.3	4.4	-1.3	i
COc1ccccc1NS(=O)(=O)c1cc(C(=O)N2CCCCCC2)ccc1C	-0.8	0.629	x	-1.6	-0.2	x	i
Cc1ccc(C(=O)c2coc3cc([N+](=O)[O-])c(O)c([N+](=O)[O-])c23)cc1	-11.4	0.627	u	3.3	14.7	-3.9	i
C=CCN1C(=O)C(CC(=O)O)SC1=Nc1cccc([N+](=O)[O-])c1 (centres undefined)	-1.6	0.705	-1.1%	-0.3	-1.3	-1.7	i
CCOC(=O)C1(Cc2ccccc2C(F)(F)F)CCN(C2CCSC2)CC1 (centres undefined)	0.8	0.663	-1.7%	6.1	0.6	-1.2	x
Cc1cc2ncn(CC3CC3(Cl)Cl)c2cc1C (centres undefined)	0.1	0.653	x	3.3	5.1	1.5	i
CCOc1ccc(OCC(=O)Nc2ccc(S(=O)(=O)Nc3cc(C)nc(C)n3)cc2)cc1	-0.4	0.716	20.5%	x	0.1	2.1	x
O=C(CSc1nccc(=O)[nH]1)Nc1cccc2ccccc12	1.4	0.618	x	-4.1	6.1	7.5	i
CCN(Cc1ccncc1)C(=O)CCc1nnc(CCC2CCCCC2)o1	-1.0	0.701	x	-1.1	0.2	3.1	i
CSc1nc2ccccc2n1Cc1cccc(F)c1	-0.9	0.717	30.6%	x	2.5	-4.9	x
Cc1ccc(-c2nn3c(C)nnc3s2)cc1NC(=O)c1cccs1	0.8	0.71	-5.3%	x	0.2	1.1	x
COc1cc(Cl)c(CN2CCCC(CO)(Cc3ccccc3)C2)cc1OC (centres undefined)	-1.2	0.7	x	-6.0	1.9	2.6	i
COC(=O)CN=Cc1c(C)[nH]n(-c2ccccc2)c1=O	0.2	0.702	7.9%	-1.3	5.7	6.3	i
CCOC(=O)c1sc(NC(=O)CSc2nnc(C(C)C)n2C)nc1C	3.1	0.705	10.8%	x	2.5	-4.2	x
C#CCOCCOCCOCCNc1nc(N2CCN(C(=O)CCCCCCCCCCNC(=O)[C@H](CCCCN)n3cc(CCO)nn3)CC2)nc(N2CCN(C(=O)CCCCCCCCCCNC(=O)[C@H](CCCCN)n3cc(CCCC(=O)O)nn3)CC2)n1	48.2*	x	x	55.4*	2.5	x	i
CC[C@H](C)[C@H](NC(=O)c1ccccc1)C(=O)NC(CC(=O)O)c1ccc(F)cc1 (some centres undefined)	-3.7	0.645	4.2%	-2.5	-0.2	5.1	i
CCc1nc2ccc(C(=O)NCc3cccs3)cn2c1N(CC)CCN(C)C	-3.3	x	x	2.0	x	x	i
Cc1ccccc1OCC(=O)OCC(=O)NC1CCCCCC1	0.1	0.683	-0.8%	-0.1	2.0	x	i
CSc1ccc2c(c1)C(N1CCN(C)CC1)Cc1ccc(F)cc1S2 (centres undefined)	3.1	0.579	x	x	4.4	u	i
O=C(NCc1ccco1)NCC(F)(F)F	-1.6	0.775	-2.7%	x	8.4	2.5	x
CCCC(=O)NNC(=O)c1c(O)c2ccccc2[nH]c1=O	-6.7	0.676	-4.3%	-0.2	0.8	0.3	i
CCN(CCn1cccn1)Cc1nc(-c2ccc(C(=O)OC)cc2)no1	3.8	0.67	-4.3%	-1.5	0.9	-4.6	i
COc1ccc(CN2CCCC(C(=O)Nc3cccc(-n4cccn4)c3)C2)c(F)c1 (centres undefined)	1.4	0.698	x	2.7	2.0	3.1	i
O=C(O)CSc1nnc(-c2ccc(S(=O)(=O)N3CCCC3)cc2)n1Cc1ccco1	0.6	0.694	u	x	4.7	x	x
C[C@H](NC(=O)c1nc[nH]c1C(=O)N(C)Cc1ccccc1)c1ccccc1	0.0	x	x	-11.4	1.8	x	i
COc1cc2c(cc1OC)C(C(=O)Nc1ccccc1N1CCN(C)CC1)C1c3ccccc3CCN1C2=O (centres undefined)	-1.0	0.738	20.6%	-0.1	4.0	6.5	i
Fc1ccc2nc3c(nc2c1)CCCC3	0.1	0.653	-4.6%	-2.6	2.1	-0.5	i
Cc1ccccc1C(=O)NC(=S)Nc1ccc(S(=O)(=O)N(C)c2ccccc2)cc1	-2.7	0.776	6.0%	x	2.2	2.3	x
C=CCn1c(SCC(=O)Nc2ccc3c(c2)OCO3)nc2ccccc2c1=O	-1.7	0.7	-1.7%&-2.8%	x	0.2	-0.4	x
CCNc1nc(NC(C)C)nc(N(C#N)CCOc2ccc(Cl)cc2Cl)n1	-3.8	0.701	2.6%&9.7%	x	7.0	6.4	x

Other entries:
structure	HNF4A DNA FP	Ecoli growth	Vif TR-FRET	AF4-AF9 inh	UCH37 DUB inh	RanGTP-Impb inh	FGF22 binding
Cc1cc(C)n(CCCC(=O)O)n1	-1.8	0.658	x	-1.8	3.9	4.2	x
COc1ccccc1/C=N/n1c(C)nnc1-n1nc(C)cc1C	-2.0	x	-3.2%	x	x	-1.2	x
CC(Oc1cccc(Cl)c1)C(=O)Nc1ccncc1 (centres undefined)	-3.3	0.673	x	0.4	0.1	u	i
CC(=O)NC(CC(=O)NC1CCCCC1)c1ccccc1 (centres undefined)	0.7	0.742	x	2.2	0.5	-2.6	i
Cc1ccc(C)c(NC(=S)NNC(=O)c2ccco2)c1	0.3	0.747	-1.8%	x	2.6	-3.1	x
COC(C(=O)Nc1ccnn1C1CCN(Cc2nccs2)CC1)c1ccccc1 (centres undefined)	4.8	0.715	u	-6.2	5.1	-2.1	i
O=C1CN(C(=O)CSc2nnnn2C2CC2)c2ccccc2N1	3.4	0.7	-6.2%	1.5	-0.6	x	i
COc1ccccc1OCCNC(=O)C1CC(=O)N(c2ccc3c(c2)OCCO3)C1 (centres undefined)	0.9	0.665	1.5%	-2.0	0.3	1.7	i
CCC(C)NC(=O)CNC(=O)c1nn(-c2ccc(OC)cc2OC)c(=O)c2ccccc12 (centres undefined)	1.8	0.641	2.0%	-1.4	-2.6	1.0	i
CCn1c(C(=O)O)c(CC(=O)Nc2ccc(Br)cc2C)c2ccccc21	-1.1	0.671	-12.4%	-4.2	3.4	0.7	i
